High-throughput results: PubChem, National Center for Advancing Translational Sciences (NCATS)
TRPML1 ag = qHTS for Agonists of the Human Mucolipin Transient Receptor Potential 1 (TRPML1); Mucolipin-1 (Homo sapiens), Q9GZU1; TRPML1-expressing cells, Ca2+ dye fluorescence, FDSS; host cell line not named in the record; reference of the full effect not given here; activation, % (test concentration not listed); 410,000 compounds, 0.12% hits; in the data active = activation above about 50%; inconclusive = about 30% to 50%; inactive = below about 30%; note: 0% is about no effect; the text of the record puts the active cut at 80%
Target sequence (Q9GZU1 whole entry, looked up): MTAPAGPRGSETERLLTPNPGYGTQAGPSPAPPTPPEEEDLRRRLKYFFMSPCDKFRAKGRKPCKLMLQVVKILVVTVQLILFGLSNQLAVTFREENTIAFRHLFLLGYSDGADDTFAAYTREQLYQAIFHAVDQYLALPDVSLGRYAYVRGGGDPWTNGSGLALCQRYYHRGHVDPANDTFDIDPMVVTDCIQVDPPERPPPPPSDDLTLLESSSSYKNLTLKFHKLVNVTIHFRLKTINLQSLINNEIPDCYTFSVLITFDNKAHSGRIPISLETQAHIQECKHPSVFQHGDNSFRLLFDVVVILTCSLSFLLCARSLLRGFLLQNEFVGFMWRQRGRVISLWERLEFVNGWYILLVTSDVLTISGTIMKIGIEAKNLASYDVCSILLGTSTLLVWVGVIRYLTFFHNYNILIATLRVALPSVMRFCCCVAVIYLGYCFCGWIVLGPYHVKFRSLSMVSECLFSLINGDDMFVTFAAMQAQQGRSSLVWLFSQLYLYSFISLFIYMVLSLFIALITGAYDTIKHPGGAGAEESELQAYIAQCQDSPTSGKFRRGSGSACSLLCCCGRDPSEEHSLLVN
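Tet-induced TRPML1-DL cells, 1,500 per well, cultured overnight, were loaded with a no-wash Ca2+ dye for 45–90 min. Calcium fluorescence was recorded on the FDSS for 110 s after compound addition, before the EC80 agonist (4 uM 54-4) was added.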
D2 potentiator = Beta-Arrestin HTS for Positive Allosteric Modulators of the Human D2 Dopamine Receptor: Potentiators. D(2) dopamine receptor (Homo sapiens), P14416. AID 624464, 2012. potentiation, % (test concentration not listed). DiscoveRx D2 beta-arrestin cells, luminescence, 90 min; 100% = 57 uM dopamine signal. 360,000 compounds, 0.23% hits; active = potentiation of 50% or more; inconclusive = 30% to 50%; inactive = 30% or less;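 note: compound concentration not given in the record; tested on top of an EC20 dose of dopamine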
Target sequence (P14416 whole entry, looked up): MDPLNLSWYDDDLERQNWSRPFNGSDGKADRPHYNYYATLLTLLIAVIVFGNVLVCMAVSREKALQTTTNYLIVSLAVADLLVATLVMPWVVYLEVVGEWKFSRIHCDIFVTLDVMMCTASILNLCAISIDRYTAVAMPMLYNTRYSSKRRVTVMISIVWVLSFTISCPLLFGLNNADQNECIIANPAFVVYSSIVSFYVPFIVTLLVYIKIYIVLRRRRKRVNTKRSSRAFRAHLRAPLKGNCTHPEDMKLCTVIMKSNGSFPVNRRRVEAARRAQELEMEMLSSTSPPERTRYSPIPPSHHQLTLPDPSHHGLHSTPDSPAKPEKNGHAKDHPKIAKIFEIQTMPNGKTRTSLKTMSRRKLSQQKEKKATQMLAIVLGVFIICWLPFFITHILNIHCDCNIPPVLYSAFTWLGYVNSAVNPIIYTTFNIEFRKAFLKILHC
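D2 cells co-treated with compound plus 50 nM dopamine (EC20) for 90 min at 37 deg C to detect potentiation. Beta-arrestin recruitment was read as enzyme-fragment luminescence after 1 h at ambient temperature. Full response was set by 57 uM dopamine.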
TRPML1 blocker = qHTS for Inhibitors of the Human Mucolipin Transient Receptor Potential 1 (TRPML1); 390,000 compounds, 0.02% hits; activity change, negative = inhibition, % (no concentration beside the values); TRPML1-inducible cells, Ca2+ dye fluorescence, FDSS; stronger effect = lower value; inhibition of EC80 agonist-evoked calcium signal; Mucolipin-1 (Homo sapiens), Q9GZU1; in the data active means activity change below about -50%; inconclusive means about -30% to -50%; inactive means above about -30%;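 note: stimulus is agonist 54-4 at its EC80 concentration; % is set by controls: 0 for no effect and ±100 for the full control effect; compound concentration not given in the record; the text of the record puts the active cut at -80%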
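Calcium fluorescence in TRPML1-DL cells induced overnight with Tet: a 110 s read after compound pin addition, then a 110 s antagonist read after challenge with 54-4 at 4 uM final (EC80).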
PINK1 modulator = A Quantitative High throughput Screen to Identify Chemical Modulators of PINK1 Expression. PINK1 immunofluorescence, high-content cytometry, 24 h. Potency, µM (highest dose often 76.6 µM), inactives show top-dose activation (PINK1 increase), actives largely listed as activators. 410,000 compounds, 0.2% hits. AID 624263, 2012; active = well fitted activation curve with a large enough effect; inconclusive = small, poorly fitted or top-dose-only effect; inactive = flat fitted curve, though single readings scatter; cell line not stated here;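 note: potency is the fitted concentration of half-maximal effect; % of control where 0% means no effect; nearly all actives have a fitted effect of over 65% in size; a mitochondrial uncoupler was the plate control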
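Cells are seeded, rested 12 hours, then given compound at five concentrations or DMSO for 24 hours. After fixation, blocking and antibody staining, PINK1 amount and mitochondrial localization are scored; CCCP serves as control.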
Six1-Eya2 inh = qHTS Assay for Inhibitors of the Six1/Eya2 Interaction; AlphaScreen GST-Six1/His-Eya2 binding, biochemical; stronger effect = lower value; control for the full effect not named in the record; AID 651725, 2012; Homeobox protein SIX1 (Homo sapiens) + Protein phosphatase EYA2 (Homo sapiens), …; activity change, % (no concentration beside the values); 360,000 compounds, 0.56% hits; in the data active = activity change below about -65%; inconclusive = about -30% to -65%; inactive = above about -30%; note: % is set by controls: 0 for no effect and ±100 for the full control effect
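GST-Six1 + His-Eya2 (5X stock: 250/500 nM); Tris pH 8.0, 300 mM NaCl, 0.05% BSA, 0.02% Tween 20; GSH donor/Ni acceptor beads; 1 h 37 °C dark; AlphaScreen readout.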
D2 agonist = Beta-Arrestin HTS for Positive Allosteric Modulators of the Human D2 Dopamine Receptor: Agonists | D(2) dopamine receptor (Homo sapiens), P14416 | DiscoveRx PathHunter D2 beta-arrestin, luminescence, 90 min; 100% = 57 uM dopamine signal | activation, % (no concentration beside the values) | 360,000 compounds, 0.084% hits | AID 624465, 2012; in the data active = activation above about 40%; inconclusive = about 15% to 40%; inactive = below about 15%; note: compound concentration not given in the record; the text of the record calls up to 30% inactive
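DiscoveRx PathHunter D2 beta-arrestin cells (2,100/well) attached overnight, then compound-stimulated 90 min at 37 C in HBSS/10 mM HEPES/0.1% Tween-20 buffer; beta-galactosidase complementation read by luminescence after 1 h at ambient temperature. Dopamine 57 uM final (EC100) as control.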
An asterisk follows results filed as active; ? = inconclusive; · = not tested or not shown; [ ] = another dose, or the depositor's remark. Rows were taken by chance, and some 1% of all compounds hit somewhere here.

molecule,D2 agonist,TRPML1 blocker,TRPML1 ag,D2 potentiator,PINK1 modulator,Six1-Eya2 inh
Cc1ccc2nc(-c3cccc(Cl)c3)c(Cc3cccc(F)c3)n2c1,·,·,1.5,·,17%,6
CCc1cc(N2CCOCC2)cc2c1[nH]c1ccccc12,1.7,-21,-0.1,17,4.7%[38.3 µM],?
CC1=CN2C(=N)/C(=C/c3ccc(Sc4ccc(Cl)cc4)o3)C(=O)N=C2S1,-2.9,24,0.8,-8,8.6%,-7
COc1cc(C2C(=O)N(C3CCCCCC3)CC(=O)N2CCC2=CCCCC2)ccc1OC(C)C (stereo not given),·,-9,-0.3,·,0.8%,·
Nn1c(=O)c2ccccc2n2c(SCc3ccccc3)nnc12,-2.4,18,4.2,-8,1.1%,-4
CC(NC(=O)C1C(=O)N(CCO)C2(C)CC1c1ccccc1O2)c1ccccc1 (stereo not given),-5.0,-1,-1.0,0,-4.7%,2
CCN1C=C(Cc2ccccc2C)C2=C(C1)C(c1ccccc1C)C(C#N)=C(N)O2 (stereo not given),-0.4,-5,1.1,-34,14%,-11
O=C(CSc1ccc2nnc(-c3ccc(Cl)cc3)n2n1)N1CCCc2ccccc21,-2.2,-20,1.5,5,5.7%,6
CC(C)CCNC(=O)NC(=O)CSc1nnc(-c2ccccc2F)n1N,-2.7,-10,0.1,2,-0.4%,2
CCSc1nnc2c(Cl)cc(Cl)cn12,1.5,-10,0.1,-3,-2.4%,5
Cc1nc2c(OCC(=O)C(C)(C)C)cccn2c1N(C)Cc1cccs1,-3.2,·,-0.8,-5,1.7%,-5
C[C@H](NC(=O)C1CC(=O)N(c2ccc3c(c2)OCO3)C1)C(=O)NC1CCCC1 (stereo not given in full),-6.2,10,-0.7,-3,0.3%,7
CCOC(=O)C1=NN(c2ccc(Cl)cc2)C(c2ccccc2)CC1=O (stereo not given),-3.3,1,0.5,-15,-2.2%,-8
CCn1c(CN2CCCCC2)nc2cc(NC(=O)c3ccc([N+](=O)[O-])cc3)ccc21,·,-3,-0.6,·,4.4%,·
CN(Cc1ccccc1)C(=O)CNC(=O)C12CC3CC(CC(C3)C1)C2,-1.7,9,2.1,-3,0.7%,4
O=C(CN1C(=O)NC2(CCCCCC2)C1=O)N1CCCCC1,-2.4,11,-0.4,-2,1.4%,6
CS(=O)(=O)c1ccc([C@@H](O)[C@@H](CF)NC(=O)C(Cl)Cl)cc1,-1.0,8,-0.5,-6,-0.4%,-5
Cc1ccc(C)c(NC(=O)c2nc(S(C)(=O)=O)ncc2N(Cc2ccc(C(C)(C)C)cc2)Cc2ccco2)c1,·,9,0.7,·,-0.1%,·
CC(OC(=O)c1ccccc1C(=O)N(C)Cc1ccccc1)C(=O)NC1(C#N)CCCCC1 (stereo not given),-5.4,-1,2.2,-13,-0.5%,0
O=C(c1ccccc1F)N1CCN(Cc2nc3sc4c(c3c(=O)[nH]2)CCCC4)CC1,-3.0,-11,-0.4,-3,0.2%,-1
CCOC1=C2CN(S(=O)(=O)c3ccc(C)cc3)CC[C@@H]2N(S(=O)(=O)c2ccc(C)cc2)[C@H](c2ccccc2)C1,-5.4,·,-0.7,-2,0.7%,8
CCc1ccc(C(=O)c2cn(CC(=O)Nc3ccc(OC)cc3)c3cc4c(cc3c2=O)OCCO4)cc1,·,15,-0.3,·,0.4%,·
Cc1ccc(S(=O)(=O)N(C)c2ccccc2C(=O)NC2CCCC2)cc1,3.1,2,-0.5,8,?,-1
COc1ccc(C(=O)OCC(=O)N2CCN(C(=O)c3ccco3)CC2)c(OC)c1OC,0.3,12,-0.4,-7,0.8%,2
COCCn1nnnc1SCC(=O)c1ccccc1,-0.9,11,1.9,6,0.0%,-3
CCN(CC)C(=O)c1cc(-c2ccc3c(c2)OCO3)on1,3.3,-11,1.8,0,0.2%,2
O=S(=O)(Nc1ccc(O)cc1)c1cccc2cccnc12,2.0,7,-0.1,-4,2.8%,6
C/C(=N/NS(=O)(=O)c1ccc(C)cc1)[C@H]1C[C@@H]1c1ccccc1,0.4,4,0.9,-4,-0.4%,-5
Cc1nn(Cc2ccccc2)c(Cl)c1/C=C/C(=O)OCC(=O)N1CCCC1=O,-4.3,6,-0.5,-9,-0.6%,5
Cc1cnc2ccc(F)cc2c1,-3.4,·,-0.4,0,1.5%,21

Next part; it opens with the 2 that closed the last part.
molecule,D2 agonist,TRPML1 blocker,TRPML1 ag,D2 potentiator,PINK1 modulator,Six1-Eya2 inh
Cc1nn(Cc2ccccc2)c(Cl)c1/C=C/C(=O)OCC(=O)N1CCCC1=O,-4.3,6,-0.5,-9,-0.6%,5
Cc1cnc2ccc(F)cc2c1,-3.4,·,-0.4,0,1.5%,21
O=C1NC(Cc2ccccc2)c2nc3ccccc3c(=O)n2-c2cc3ccccc3cc21 (stereo not given),2.5,·,·,·,3.0%,-12
Fc1ccc(Nc2ncnc3sccc23)cc1,-0.4,19,0.5,0,4.4%,-14
CCOC(=O)c1c(S(=O)(=O)NC2CCN(C(=O)OCC)CC2)c(C)n(C)c1C,-4.4,-3,0.4,-6,2.7%,2
CCOC(=O)C1NN=C(C(=O)c2ccc(C)cc2)C1c1ccc(C)cc1 (stereo not given),-3.9,31,0.1,-22,1.8%,0
Cc1nc2cc(NC(=O)N3c4ccccc4CC3C)ccc2o1 (stereo not given),0.0,13,-0.2,-4,2.0%[38.3 µM],0
Cc1cc(NC(=O)CSc2nnc(Cc3cccn3C)n2CCc2ccccc2)no1,-1.9,40,-0.2,-5,0.4%,-9
COc1cnn(-c2cccc(C)c2)c(=O)c1Cl,-6.3,-16,-0.4,-2,-0.4%,-2
CCOC(=O)c1ccc(N(C(=O)CNC(=O)c2ccco2)C(C(=O)NCC2CCCO2)c2ccc(OC)c(OC)c2)cc1 (stereo not given),-2.3,9,0.3,7,1.1%,2
CSc1ccc(CNc2nc3ccccc3n3cnnc23)cc1,5.7,6,1.9,2,20%,4
Fc1ccc(-c2csc(-c3cccnc3)n2)cc1F,1.4,50,-0.8,-12,-2.1%,5
Cn1nc(C(F)(F)F)c(-c2ccc(Br)cc2)c1NC(=O)c1nccnc1C(=O)O,-3.8,-5,1.7,-5,0.5%,-12
CSCCC(NC(=O)c1ccccc1Cl)C(=O)N1CCCCC1 (stereo not given),-2.4,11,-0.1,-14,1.7%,7
COC(=O)c1ccc(CN2C(=O)NC3(CCCCC3C)C2=O)o1 (stereo not given),-2.8,3,-0.4,14,3.9%,-10
CCOc1cc(OCC)cc(C(=O)NCCN2CCC(n3c(=O)[nH]c4ccccc43)CC2)c1,·,·,-0.6,·,1.7%,8
Cc1nnc(SC(C(=O)Nc2cc(Cl)cc(Cl)c2)c2ccccc2)[nH]c1=O (stereo not given),4.4,10,2.3,-9,?,-7
COc1ccc(C(=O)C(C)OC(=O)C2CC3CCCC(C2)C3=O)cc1 (stereo not given),2.5,3,-0.6,-3,-0.4%,12
COc1ccc(N(C(=O)c2cccc(C)c2)S(=O)(=O)c2ccc(Cl)cc2)cc1,·,34,0.6,·,0.4%,·
COC(=O)c1c(NC(=O)COC(=O)[C@@H](NS(=O)(=O)c2cccc(Cl)c2)C(C)C)sc2c1CCC2,1.1,9,0.7,-1,-0.5%,-8
Cc1nn(-c2cc(N(S(C)(=O)=O)S(C)(=O)=O)c(Cl)cc2Cl)c(=O)n1C,-2.1,-2,0.0,1,0.9%,-2
CC(C)CNC(=O)COC(=O)CCC(=O)c1cccs1,-4.1,-13,0.6,-4,-0.6%,5
C#CCOCCOCCOCCNc1nc(N2CCN(C(=O)CCCCCCCCCCNC(=O)[C@H](CCCCN)n3cc(CCO)nn3)CC2)nc(N2CCN(C(=O)CCCCCCCCCCNC(=O)[C@H](CCCCN)n3cc(CCO)nn3)CC2)n1,0.6,10,-0.2,-51,4.6%,0
CC(=O)Nc1ccc(C)c(NS(=O)(=O)c2cccc(C(F)(F)F)c2)c1,3.7,13,-0.1,-11,0.0%,1
CCC(=O)N(Cc1ccc2c(c1)OCO2)Cc1cc2cc(OC)ccc2[nH]c1=O,-7.8,5,-1.5,-2,1.7%,-1
COc1ccc(C(C)=O)cc1CSc1nncn1C,1.3,-5,-0.1,1,-0.2%,4
CCCn1cc(S(=O)(=O)CC(=O)NC2CCCCC2)c2ccccc21,-0.2,2,-0.1,-24,·,1
O=C1c2ccccc2C(=O)N1/N=C/c1ccc(O)c(O)c1O,4.1,40,0.0,?,-0.6%,?
FC(F)Sc1ccc(NC(=S)NCC2CCCCC2)cc1,2.2,4,-0.3,-21,?,0
CC(C)c1cc(C(C)C)c(S(=O)(=O)NNC(=O)c2ccncc2)c(C(C)C)c1,-3.4,-8,1.9,1,6.6%,2
COc1ccc(OC)c(S(=O)(=O)N2CCCC(C(=O)NCc3ccco3)C2)c1 (stereo not given),-4.2,-9,0.0,-1,-0.4%,12
Cc1ccc(N(CN2CCCC2=O)C(=O)c2ccc(C)c(C)c2)cc1,1.1,14,0.8,2,-3.5%,0
O=C(Nc1ccc(Cl)cc1F)c1cnc2sc(N3CCOCC3)nn2c1=O,·,12,0.8,·,1.5%,·
COc1ccc(S(=O)(=O)NCCc2c[nH]c3ccccc23)cc1OC,-1.2,-13,0.7,4,2.9%,-2
C=C(C)C1CCC2(C(=O)O)CCC3(C)C(CCC4C5(C)C(C=O)C(O)C(C)(C)C5CCC43C)C12 (stereo not given),5.1,·,·,-33,?,1
COCCn1c(COc2ccccc2)nnc1SCC(N)=O,-3.1,0,0.0,-4,2.0%[38.3 µM],0
CC(OC(=O)Cn1[nH]c(=O)c2ccccc2c1=O)C(=O)NC1(C#N)CCCCC1 (stereo not given),-4.1,3,-0.3,23,2.2%,2
Cc1c(C(=O)NNC(=O)c2csc(N3CCOCC3)n2)cccc1[N+](=O)[O-],9.2,-4,-0.1,-5,-0.5%,0
